NPYLR7 ag – activates Aedes aegypti NPYLR7 receptor | HEK293T NPYLR7/Galpha15, GCaMP6s calcium fluorescence | activation, % at 10 µM | hit rate 0.15% among 270,000; in the data active means activation above about 40%;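 further: 0% = vehicle and 100% = reference agonist at the receptor; some compounds past the cut are filed as inactive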
NPYLR7 ag max-min – recorded beside NPYLR7 ag, whose call it bears; activation, %; measured here: Max-Min RFU normalised activation; some inactives read as strong as hits;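 span of the calcium signal over five minutes; 0% = vehicle and 100% = native peptide agonist; compound fluorescence can raise it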
Numbers without * were called inactive; & = joins results of further samples. The list is partial (hit frequency here may not be typical).

SMILES | NPYLR7 ag | NPYLR7 ag max-min
COc1cccc(CN(Cc2ccccc2)Cc2cccn2Cc2ccccc2C)c1 | 26 | 19
CCOc1ccc(C(C2Sc3nc(C)nn3C2=O)N2CCc3ccccc3C2)cc1 (stereo unspecified) | -4 | -10
Cc1ccccc1C1c2ccsc2CCN1C(=O)CN(CC1CCCO1)C(=O)c1cccc(C(F)(F)F)c1 (stereo unspecified) | -3 | -4
CCc1nc(Cl)c(C)c(NC2CCCN(S(C)(=O)=O)C2)n1 (stereo unspecified) | 2 | 9
Cc1cc(=O)[nH]c(CCNC(=O)c2cc3ccc(C(C)C)cc3[nH]2)n1 | -1 | -3
Cc1cc(OCC2CN(C(=O)c3cnc4ccccc4c3)CCO2)ccc1Cl (stereo unspecified) | -7 | -11
C[C@H](NC(=O)[C@@H](C)N1Cc2ccc(N3CCOCC3)nc2C1=O)c1ccccc1 | 8 | 4
Cc1[nH]n(-c2ccccc2)c(=O)c1N=Nc1ccccc1C(=O)N1CCOCC1 | -6 | -13
CCOc1nn(CC)cc1-c1nnc(SCc2ccccc2)n1C | 3 | 3
O=C(Cn1c2ccccc2c(=O)c2ccccc21)Nc1ccc(C(F)(F)F)cc1 | -1 | -7
O=C(CSc1nc(=O)n(Cc2ccncc2)c2c1CCC2)c1ccccc1 | -1 | -3
CCOc1cc(C(=O)N(CCOC)CC(C)C)ccn1 | 1 | -1
Cc1ccccc1C(NC(=O)N1CCS(=O)(=O)CC1C)C(C)C (stereo unspecified) | 8&7 | -7&3
CCOc1ccccc1N1CCN(C(=O)c2csc(CSc3nnc(Cc4ccccc4)n3-c3cccc(C(F)(F)F)c3)n2)CC1 | 0 | 7
O=C(NC(C(=O)N1CCCCC1)C1CCN(C(=O)Cc2ccccc2)CC1)c1ccc2c(c1)OCO2 (stereo unspecified) | -6 | 2
CCOC(=O)c1cnc(-c2ccc(C(F)(F)F)cc2)nc1NC(CC)COC (stereo unspecified) | -1 | 4
CCOC(=O)c1ccc(OC2CC3CCC(C2)N3C(=O)c2ccc(CSc3nc4ccc(Cl)cc4o3)cc2)cc1 (stereo unspecified) | 16 | -4
O=C1CCC2(CCN1)CCN(c1ncnc3[nH]ccc13)CC2 | 9 | 5
Cc1cccc(-c2ncc(CN(C)Cc3ccc4nsnc4c3)cn2)c1 | 1 | -2
S=C(N=P(c1ccccc1)(N1CCOCC1)N1CCOCC1)NCc1cn2ccsc2n1 | 7 | 5
NC(=O)CSc1nc(=O)n(CC2CCCO2)c2c1CCCC2 (stereo unspecified) | -3 | -7
Cc1nc(C)c(Cc2c(F)cccc2Cl)c(N2CCN(C(=O)c3ccco3)CC2)n1 | 2 | 9
COc1ccc(-c2cc3c(=O)[nH]nc(SCc4ccc(N5CCCC5=O)cc4)n3n2)cc1OC | -3 | 0
O=C(c1ccno1)N1CCN(c2nccc(-c3ccc(Oc4ccccc4)cc3)n2)CC1 | 21 | 26
COc1ccc(N2CCN(c3cc(C(=O)NCc4ccccc4F)c4ccccc4n3)CC2)cc1 | 12 | 5
CC(=O)N[C@@H]1[C@@H](O[C@H](C)C(=O)O)[C@H](O)[C@@H](CO)O[C@@H]1O | -4 | -4
CC1(C(=O)NS(C)(=O)=O)CCN1C(=O)Cc1ccc(Cl)cc1Cl (stereo unspecified) | -4 | -10
CC(C)N(Cc1csc(COc2ccccc2)n1)C(=O)c1ccccc1F | 14 | 23
CCCc1c(C)nn(-c2ccc(C(=O)NCCc3ccccc3F)cc2)c1C | -7 | -11
CCCCNC(=O)N(CCOC)Cc1c(C)nn(-c2cccc(F)c2)c1N1CCN(CC)CC1 | 0 | 4

For reference, 17 of the compounds above:
SMILES | NPYLR7 ag | NPYLR7 ag max-min
O=C(CSc1nc(=O)n(Cc2ccncc2)c2c1CCC2)c1ccccc1 | -1 | -3
CCOc1cc(C(=O)N(CCOC)CC(C)C)ccn1 | 1 | -1
Cc1ccccc1C(NC(=O)N1CCS(=O)(=O)CC1C)C(C)C (stereo unspecified) | 8&7 | -7&3
CCOc1ccccc1N1CCN(C(=O)c2csc(CSc3nnc(Cc4ccccc4)n3-c3cccc(C(F)(F)F)c3)n2)CC1 | 0 | 7
O=C(NC(C(=O)N1CCCCC1)C1CCN(C(=O)Cc2ccccc2)CC1)c1ccc2c(c1)OCO2 (stereo unspecified) | -6 | 2
CCOC(=O)c1cnc(-c2ccc(C(F)(F)F)cc2)nc1NC(CC)COC (stereo unspecified) | -1 | 4
CCOC(=O)c1ccc(OC2CC3CCC(C2)N3C(=O)c2ccc(CSc3nc4ccc(Cl)cc4o3)cc2)cc1 (stereo unspecified) | 16 | -4
O=C1CCC2(CCN1)CCN(c1ncnc3[nH]ccc13)CC2 | 9 | 5
Cc1cccc(-c2ncc(CN(C)Cc3ccc4nsnc4c3)cn2)c1 | 1 | -2
S=C(N=P(c1ccccc1)(N1CCOCC1)N1CCOCC1)NCc1cn2ccsc2n1 | 7 | 5
NC(=O)CSc1nc(=O)n(CC2CCCO2)c2c1CCCC2 (stereo unspecified) | -3 | -7
Cc1nc(C)c(Cc2c(F)cccc2Cl)c(N2CCN(C(=O)c3ccco3)CC2)n1 | 2 | 9
COc1ccc(-c2cc3c(=O)[nH]nc(SCc4ccc(N5CCCC5=O)cc4)n3n2)cc1OC | -3 | 0
O=C(c1ccno1)N1CCN(c2nccc(-c3ccc(Oc4ccccc4)cc3)n2)CC1 | 21 | 26
COc1ccc(N2CCN(c3cc(C(=O)NCc4ccccc4F)c4ccccc4n3)CC2)cc1 | 12 | 5
CC(=O)N[C@@H]1[C@@H](O[C@H](C)C(=O)O)[C@H](O)[C@@H](CO)O[C@@H]1O | -4 | -4
CC1(C(=O)NS(C)(=O)=O)CCN1C(=O)Cc1ccc(Cl)cc1Cl (stereo unspecified) | -4 | -10

Next structures follow:
SMILES | NPYLR7 ag | NPYLR7 ag max-min
CCCCc1ccc(-c2ccc(-n3cncc3C(=O)NCc3c(C)cc(Cl)cc3Cl)cc2)cc1 | 8 | 5
CCC1(O)CCCN(CCC(=O)Nc2ccc(OC)cc2C)C1 (stereo unspecified) | 0 | -7
O=C(NCc1ccc(F)cc1)c1cc2cc([N+](=O)[O-])ccc2oc1=O | -9 | -15
Fc1ccc(CN2CCN(c3ncnc4c3cnn4-c3ccccc3)CC2)cc1 | -3 | -4
COc1ccc(N2CCN(CCc3c[nH]c4ccc(NC(=O)c5cc(C(F)(F)F)cc(C(F)(F)F)c5)cc34)CC2)cc1 | 12 | -3
CS(=O)(=O)N1CCN(C(=O)c2ccc(OCC(=O)C3CC3)cc2)CC1 | -2 | -1
c1ccc(Cn2cnc3c(NC4CCCCC4)nccc32)cc1 | -6 | -11
CCCn1cc(C(=O)N2Cc3cnn(CCO)c3C2)c(C)n1 | 8 | -4
N#Cc1c2c(c(NCCN3CCOCC3)n3c1nc1ccccc13)CCCC2 | 2 | 1
CCOC(=O)c1sc(N)c(C#N)c1Cn1cc(C(F)(F)F)cc(Cl)c1=O | 12 | 4
CCC(=NNc1ccnc2cc(Cl)ccc12)c1ccccc1 | 9 | 9
CCC(=O)N(Cc1nccn1Cc1ccc(F)c(F)c1)CC(C)C | 4 | 5
O=C(NCc1ccco1)c1ccc2c(=O)n3c(nc2c1)CCCCCC3 | 1 | 4
Cc1c(C(=O)Nc2ccc(-n3cncn3)nc2)sc2ncn(C)c(=O)c12 | 5 | 4
O=C(CN1C(=O)NC2(CCCc3ccccc32)C1=O)Nc1ccc(N2CCCC2=O)cc1 (stereo unspecified) | 8 | 5
CC(Cl)C(=O)Nc1nnc(SCCCOc2ccccc2)s1 (stereo unspecified) | 18 | 27
CC(C)Cc1cc(CNC(=O)c2scc3c2OCCO3)no1 | -4 | -5
Cc1csc2ncc(C(=O)N(Cc3ccccc3)c3ccccn3)c(=O)n12 | -7 | -5
O=C(CCc1nnc(CCc2c[nH]c3ccccc23)o1)NCCC1=CCCCC1 | 3 | 1
Cn1c(=O)c2c(C(=O)O)cc(-c3cccnc3)nc2n(Cc2ccccc2)c1=O | 1 | 1
O=C(CN1C(=O)c2ccccc2C1=O)Nc1ccc(C2=CSC3=NCCCN23)cc1 | -4 | -3
CCc1nc2n(n1)C(=O)C(C(c1cccc(OC)c1)N1CCN(c3ccccc3)CC1)S2 (stereo unspecified) | -4 | -9
COc1ccc(OC)c2c1CN(Cc1c(Cl)ccc3cccnc13)CC2O (stereo unspecified) | 21 | 22
Cc1noc(C)c1CN(C)C(C)C(=O)N1CCc2ccccc21 (stereo unspecified) | 6 | 6
CN1C(=O)CCN(C(=O)OCc2ccccc2)CC(O)c2ccccc21 (stereo unspecified) | 2 | 0
COc1ccccc1C(=O)NCCn1cc(SCC(=O)N2CCc3ccccc32)c2ccccc21 | 0 | 0
CCOC(=O)CCC(=O)N(Cc1ccc(OC)c(OS(C)(=O)=O)c1)C(C)C | -2 | -1
CCC(c1n[nH]c(=S)n1CCN1CCOCC1)N(C)C (stereo unspecified) | 0 | 1
CN(CCc1ccccc1)C(=O)Nc1cnc(N(C)C)nc1 | -24 | -27
Cc1nnc(NC(=O)/C=C/c2ccc(Cl)s2)s1 | 1 | 3
CCc1nc2sc3c(c2c2nncn12)CCC3 | 2 | 4
Cc1ccsc1C(=O)N1CCCC(CCC(=O)NCc2ccccc2Cl)C1 (stereo unspecified) | 2 | -4
CC(C)CNS(=O)(=O)c1ccc(C(=O)OCC(=O)N2CCCC2)cc1 | 0 | 88
CSc1nc2nccc(-c3ccncc3)n2n1 | -14 | -20
CSCC[C@@H](CO)NC(=O)c1cccc2ccnn12 | -3 | -5
Cc1cc(Br)ccc1NC(=O)c1cccn(OCc2ccccc2F)c1=O | 0 | -1
Cn1c(=O)cc(O)c2ccccc21 | 1 | 4
COc1ccc(-c2ccc(NC(=O)Nc3cccc(Cl)c3)cc2)nn1 | 1 | 0
Cc1nc(-c2cc(C(=O)N3CCC(CNC(=O)C(F)(F)F)CC3)no2)cs1 | -4 | -5
Cc1ccc(C)c(S(=O)(=O)N2CCCOC2CNC(=O)C(=O)NCCc2ccco2)c1 (stereo unspecified) | 1 | 1
Cc1cccc(Cc2c(C)nc(C)nc2N2CCN(S(=O)(=O)c3c(C)cc(C)cc3C)CC2)c1 | 4 | 4
Cc1cnc(C)c(N2C[C@@H]3[C@H](C2)[C@H]2CC[C@@H]3O2)n1 | 3 | -3
O=C(C1CCCC1)N(Cc1ccc(F)cc1F)CC1CC(c2ccc(F)cc2)=NO1 (stereo unspecified) | -21 | -17
CN1CCN(c2ncccc2CNC(=O)CN2CCc3ccccc3C2)CC1 | -5 | -7
O=C(C1=CCCCC1)N1CCCC(CO)(CCCc2ccccc2)C1 (stereo unspecified) | 2 | 2
Cc1ccccc1Oc1ncccc1CNC(=O)C1CCCC1 | 0 | -3
CC(C)(C)OC(=O)Nc1ccc(CCNC(=O)Cc2ccccc2F)cc1 | 7 | 6
CCCCN(CC(=O)N(CCc1c[nH]c2ccccc12)Cc1ccc(F)cc1)C(=O)Nc1ccc(OC)cc1OC | -3 | -11
CN(C)S(=O)(=O)c1cccc(NC(=O)c2cc(Cl)ccc2F)c1 | 4 | 3
CCOC(=O)C1(Cc2ccc(OC)cc2)CCN(C(=O)c2csc(C)n2)CC1 | -4 | 11
CCc1c(Cl)nc(C)nc1NCC1CN(C)CCN1C (stereo unspecified) | 4 | 2
CC(C)COCC(O)CN(Cc1cccn1C)CC1CCCO1 (stereo unspecified) | 44* | 42*
CN(C)CCN(Cc1c(-c2ccccc2)noc1N1CCCC1)C(=O)c1cccc(C(F)(F)F)c1 | 2 | 5
CC(=O)Nc1ccc(S(=O)(=O)N2CCC(NC(=O)c3cccc(S(C)(=O)=O)c3)CC2)cc1 | 4 | 2
Cc1nnc(SCC(=O)N2CCCC(CCc3ccccc3C)C2)o1 (stereo unspecified) | 1 | 2
C#CCOCC(O)CN(CCC(C)C)Cc1c(-c2ccccc2)noc1N(C)C(C)C (stereo unspecified) | 5 | 7
O=C(O)c1cccc(S(=O)(=O)N2CC=C(c3ccccc3)CC2)c1 | 0 | 2
O=S(=O)(Cc1ccccc1)N1CCN(c2nc(Cc3ccccc3)nc3c2cnn3-c2cccc(Cl)c2)CC1 | 32 | 28
CCCCCCCCCCCCCCCCCCNC(=O)OCC(COP(=O)(O)OCC[n+]1ccsc1)OC (stereo unspecified) | 0 | 19
COCCCN(CC(=O)N(Cc1cccn1C)C1CC1)C(=O)c1cccc(C(F)(F)F)c1 | -12 | -6

Sorted by SMILES length (low to high): 3 of the compounds above
SMILES | NPYLR7 ag | NPYLR7 ag max-min
Cc1nnc(NC(=O)/C=C/c2ccc(Cl)s2)s1 | 1 | 3
CCOC(=O)c1sc(N)c(C#N)c1Cn1cc(C(F)(F)F)cc(Cl)c1=O | 12 | 4
O=C(CN1C(=O)NC2(CCCc3ccccc32)C1=O)Nc1ccc(N2CCCC2=O)cc1 (stereo unspecified) | 8 | 5

(continued)
SMILES | NPYLR7 ag | NPYLR7 ag max-min
COc1ccccc1N1C(=O)C2C(c3ccccc3)C=CC(c3ccccc3)C2C1=O (stereo unspecified) | 4 | 2
Cc1ccc(Nc2nc(Nc3cccc(Cl)c3)nc3nccnc23)cc1 | 1 | 6
CCOC(=O)c1ccc(S(=O)(=O)N2CCN(CC(O)COc3ccc4ccccc4c3)CC2)cc1 (stereo unspecified) | 4 | 0
CC(O)(c1cccc(F)c1)c1nc(-c2csc3ccccc23)cs1 (stereo unspecified) | -3 | -3
O=S(=O)(NCCNc1nc(-c2cccs2)nc2cc(Cl)ccc12)c1ccccc1 | 7 | 16
COc1ccc(Cc2nc3ccc(C(=O)N4CCN(c5cnccn5)CC4)cc3o2)cc1 | 5 | 6
COc1cccc2c1OCCCN(c1nncc(-c3ccc(C)o3)n1)C2 | 1 | -1
Cc1ccc(-c2ccnc(-c3ccnc4[nH]ccc34)n2)c(C)n1 | 0 | -2
Fc1ccc(-n2nnc3c(SCc4ccccn4)ncnc32)cc1 | 3 | 25
Cn1cnc([N+](=O)[O-])c1NCC1(c2ccc3c(c2)OCCO3)CCCC1 | -2 | -2
CN(Cc1ccc(C(=O)NC2CC2)cc1)S(=O)(=O)c1ccc(Cl)cc1C(F)(F)F | -4 | -5
Cc1ccccc1-n1c(SCc2nc(C(=O)NC3CCN(Cc4ccccc4)CC3)cs2)nnc1-c1ccncc1 | -5 | 2

Assay outcomes: PubChem, Fisher Drug Discovery Resource Center
